# TRPML1 inh = blocks the human TRPML1 channel; TRPML1-inducible cells, Ca2+ dye fluorescence, FDSS; active compounds read low; inhibition of EC80 agonist-evoked calcium signal; activity change, negative = inhibition, % (test concentration not listed); AID 624415; Q9GZU1; 390,000 compounds, 0.02% hits; in the data active means activity change below about -50%; inconclusive means about -30% to -50%; inactive means above about -30%;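 further: stimulus is agonist 54-4 at its EC80 concentration; on the % scale 0 is the no-effect control and ±100 the full control effect; compound concentration not given in the record; the text of the record puts the active cut at -80%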
#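 Calcium fluorescence in TRPML1-DL cells induced overnight with Tet: a 110 s read after compound pin addition, then a 110 s antagonist read after challenge with 54-4 at 4 uM final (EC80).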
# Six1-Eya2 blk = inhibitors of human Six1/Eya2 interaction. Q15475+O00167. AlphaScreen GST-Six1/His-Eya2 binding, biochemical; active compounds read low; control for the full effect not named in the record. activity change, % (concentration not given with the values). 360,000 compounds, 0.56% hits. AID 651725; in the data active = activity change below about -65%; inconclusive = about -30% to -65%; inactive = above about -30%; further: on the % scale 0 is the no-effect control and ±100 the full control effect
#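 Compounds are tested against tagged Six1 and Eya2 proteins bridged by glutathione donor and nickel acceptor beads; after a one-hour incubation at 37 °C without light, AlphaScreen emission is recorded.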
# TRPML1 ag = activates the human TRPML1 channel; Q9GZU1; TRPML1-expressing cells, Ca2+ dye fluorescence, FDSS; host cell line not named in the record; reference of the full effect not given here; activation, % (test concentration not listed); 410,000 compounds, 0.12% hits; AID 624414; in the data active = activation above about 50%; inconclusive = about 30% to 50%; inactive = below about 30%; further: 0% is about no effect; the text of the record puts the active cut at 80%
#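 Kinetic FDSS Ca2+ read in Tet-induced TRPML1-DL cells (ABD Ca8 dye plus quencher, 45-90 min RT loading): baseline, then compound, then 110 s agonist window; EC80 agonist 54-4 at 4uM final added afterwards for a 110 s antagonist window.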
# D2 agonist = activates the human D2 dopamine receptor; P14416; AID 624465; DiscoveRx PathHunter D2 beta-arrestin, luminescence, 90 min; 100% = 57 uM dopamine signal; 360,000 compounds, 0.084% hits; activation, % (concentration not given with the values); in the data active = activation above about 40%; inconclusive = about 15% to 40%; inactive = below about 15%; further: the text of the record calls up to 30% inactive
# Target sequence (P14416 whole entry, looked up): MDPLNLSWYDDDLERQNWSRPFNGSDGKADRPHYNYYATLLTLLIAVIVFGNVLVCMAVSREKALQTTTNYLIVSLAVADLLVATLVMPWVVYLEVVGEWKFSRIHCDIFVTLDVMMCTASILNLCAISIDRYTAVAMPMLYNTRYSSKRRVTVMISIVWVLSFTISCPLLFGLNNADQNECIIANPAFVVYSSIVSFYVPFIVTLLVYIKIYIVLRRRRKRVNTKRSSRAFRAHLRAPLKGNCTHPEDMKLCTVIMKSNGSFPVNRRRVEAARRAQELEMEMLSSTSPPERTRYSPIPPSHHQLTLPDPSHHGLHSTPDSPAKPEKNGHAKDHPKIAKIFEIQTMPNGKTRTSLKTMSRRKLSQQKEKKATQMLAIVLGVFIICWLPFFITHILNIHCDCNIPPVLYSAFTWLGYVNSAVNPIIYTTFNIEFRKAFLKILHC
#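 Agonist mode: compounds alone added to overnight-plated D2 PathHunter cells for 90 min at 37 C, with 57 uM final dopamine (EC100) defining full response. Beta-arrestin recruitment detected by chemiluminescent reagent, read after 1 h at ambient temperature.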
# PINK1 modulator = changes PINK1 expression | PINK1 immunofluorescence, high-content cytometry, 24 h | Potency, µM (doses to about 76.6 µM), for the others: at the highest dose activation (PINK1 increase), actives largely listed as activators | 410,000 compounds, 0.2% hits; active = well fitted activation curve with a large enough effect; inconclusive = small, poorly fitted or top-dose-only effect; inactive = flat fitted curve, though single readings scatter; cell line not stated here;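 further: potency means the concentration at half of the fitted maximal effect; % of control where 0% means no effect; nearly all actives have a fitted effect of over 65% in size; a mitochondrial uncoupler was the plate control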
#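 Cells are seeded, rested 12 hours, then given compound at five concentrations or DMSO for 24 hours. After fixation, blocking and antibody staining, PINK1 amount and mitochondrial localization are scored; CCCP serves as control.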
# D2 potentiator = human D2 receptor positive allosteric modulation; P14416; DiscoveRx D2 beta-arrestin cells, luminescence, 90 min; 100% = 57 uM dopamine signal; potentiation, % (test concentration not listed); 360,000 compounds, 0.23% hits; AID 624464; active = potentiation of 50% or more; inconclusive = 30% to 50%; inactive = 30% or less;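 further: compound concentration not given in the record; tested on top of an EC20 dose of dopamine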
#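 PathHunter D2 cells, attached overnight at 37 deg C, received compound in DMSO plus dopamine at EC20 (50 nM final) for 90 min at 37 deg C. Beta-arrestin recruitment was read as luminescence after 1 h with detection reagent at ambient temperature.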
# The depositor's hits bear a star; ? = inconclusive; / = no result given; & = joins results of further samples; [ ] = remark or other dose.
SMILES,TRPML1 inh,Six1-Eya2 blk,TRPML1 ag,D2 agonist,PINK1 modulator,D2 potentiator
C[C@@H]1CN([C@H](C)CO)C(=O)CCCn2nncc2CO[C@H]1CN(C)S(=O)(=O)c1cn(C)cn1,/,5,/,-3.4,-0.5%,/
Cc1nc2scc(C)n2c(=O)c1S(=O)(=O)N1CCN(c2ccc(F)cc2)CC1,-4,3,0.0,6.6,5.4%,-7
CCCS(=O)(=O)NC(=O)C1(C)CCN(C(=O)Cc2ccc(OC)c(OC)c2)C1 (configuration not stated),-25,8,0.2,-4.3,-0.4%,-9
Cc1cccc(C(=O)N2CCc3cc(CNC(=O)c4cc5ccccc5[nH]4)ccc32)c1,14,/,-0.6,/,0.6%,/
CCCNS(=O)(=O)c1ccc(CCC(=O)Nc2ccc3c(c2)OCO3)cc1,-11,-1,-0.4,2.2,-1.3%,-4
CC(C)NC(=O)C(C)Oc1ccc(S(=O)(=O)NCc2ccc3c(c2)OCO3)cc1 (configuration not stated),11,1,-0.7,6.8,2.0%,3
CCc1ccc(NC2=NC(C(=O)NC3CCCCC3)CC(=O)N2)cc1 (configuration not stated),16,0,0.2,0.0,5.0%,-8
COCCN(C(=O)CCCC(=O)Nc1ccccn1)C(C(=O)NC1CCCC1)c1ccc(C)cc1 (configuration not stated),5,-1,-0.7,-1.0,-0.8%,3
O=C(NCCCN=C1NS(=O)(=O)c2ccccc21)c1ccc(Cl)cc1,20,6,1.8,-0.7,0.0%,-8
COc1cc2c(=O)n(CCC(=O)NCC3CCCO3)c(=O)n(CC(=O)c3ccc(Cl)cc3)c2cc1OC (configuration not stated),-5,-3,3.4,-14,1.8%,5
COc1ccc(NC(=O)C2=C(C)Nc3nc(SCc4ccc(Cl)cc4)nn3C2c2cccc(OC)c2OC)cc1 (configuration not stated),14,/,-0.9,/,5.8%,/
CN(Cc1ccc(F)cc1)C(=O)c1ccc(NS(=O)(=O)c2ccc3[nH]c(=O)[nH]c3c2)cc1,-6,1,-0.6,-1.1,-2.0%,-5
O=C(O)c1ccc(-n2ncc3c2/C(=C\c2cccc([N+](=O)[O-])c2)CC3)cc1,6,-1,-0.2,0.1,5.3%,-6
Cc1cc(C)cc(NC(=O)CSc2ccc(-c3cccs3)nn2)c1,27&-10,-28,4.4&3.5,-4.3,-0.1%&3.1%,-5
CC(=O)C(C(c1ccccc1)c1c[nH]c2ccccc12)[N+](=O)[O-] (configuration not stated),4,-1,1.8,0.5,5.0%,-7
COc1ccc(-c2nc3ccccc3o2)cc1NC(=O)C(C)Oc1ccc(Cl)cc1Cl (configuration not stated),99,/,-0.8,/,0.0%,/
Fc1cccc(NC(=S)NCCN2CCOCC2)c1,16,10,0.4,-2.8,3.7%,-12
CCC1CCCCN1Cc1nc2ccccc2c(=O)n1CC(C)=O (configuration not stated),26,3,0.5,2.5,1.1%,2
CCOc1ccc(OCC)c(NC(=O)CN2CCN(c3ccc(C)cc3C)CC2)c1,16,-1,4.5,-2.9,-2.4%,-16
COc1ccc(NC(=O)c2ccco2)cc1NC(=O)c1c(OC)cccc1OC,-17&3,-1,0.5&-0.1,2.7,-1.0%&0.3%,-2
CCOCc1cc(CN2CCN(c3cccc(C(F)(F)F)c3)CC2)c(O)c2ncccc12,-1,/,0.7,/,15%,/
COc1cccc(C(C)(O)c2nc(-c3cccc(NC(C)=O)c3)cs2)c1 (configuration not stated),/,0,0.0,1.1,-0.9%,2
O=C(COc1ccc(Br)cc1Br)NC1CCCC1,-9,19,0.2,2.7,-0.3%,-4
CC(C)(C)n1ncc2c(=O)n(CC(=O)N3CCCC3)cnc21,3,3,-1.1,-1.9,-0.5%,-15
CCOc1ccc(NC(=O)c2c(NC(=O)c3ccncc3)sc3c2CCC(C(C)(C)C)C3)cc1 (configuration not stated),-12,/,-0.4,/,4.7%,/
Nc1[nH]nc2nc(N3CCCC3)nc(-c3ccccc3)c12,13,-3,0.0,-1.7,-6.0%,-15
CSCCC(C(=O)Nc1c(C)cccc1C)N1CCC(Cc2ccccc2)CC1 (configuration not stated),/,-7,-0.1,-5.0,4.2%,-11
CCOC(=O)C1CCN(C(=O)Cn2nc(C)n3c(cc4sccc43)c2=O)CC1,1,/,-0.7,/,-0.5%,/
Cc1nn(C)cc1C=NCCOCc1ccccc1,12,-1,-0.7,1.2,0.0%,15
O=C(NCc1ccccc1Br)c1ccco1,2,0,-0.3,-4.6,15%[38.3 µM],2
Cc1ccc(C(=O)Nc2nnc(S(=O)(=O)N3CCCCCC3)s2)cc1,-4&-18,5,-0.2&0.1,0.1,5.0%&0.6%,-4
Cc1n[nH]c(C)c1S(=O)(=O)N1CCCC(C(=O)NC2CCCCC2)C1 (configuration not stated),29,23,-0.2,0.6,-0.1%,0
CCc1nnc(NC(=O)CCC(=O)N2CCN(Cc3cc(Cl)ccc3OC)CC2)s1,20,-1,1.6,-1.3,-0.4%,-17
COc1ccc(S(=O)(=O)N(C)CC(=O)N2CCCCC2)cc1Cl,3,-2,-1.0,-3.2,0.8%,-18
O=C1CSC(c2ccc([N+](=O)[O-])cc2)N1C1CCCCC1 (configuration not stated),46,-6,0.1,-1.2,9.3%,0
O=C(Nc1ccccc1)P(=O)(O)c1ccccc1,13,8,0.2,-0.5,4.0%,-3
Cc1cc(C)cc(OCC(=O)NNC(=O)c2ccccn2)c1,9,-68*,0.0,6.6,0.5%,2
Cc1ccc(-n2nc3c(c2NC(=O)/C=C\c2ccc4c(c2)OCO4)CSC3)cc1,0,-1,-1.2,-4.8,-0.7%,1
COc1ccc(/C=C(/NC(=O)c2ccccc2)C(=O)NCCCn2ccnc2)cc1OC,15,1,-0.2,1.2,-1.7%,-8
CCCN(Cc1ccccc1)C(=S)Nc1cccc(C(F)(F)F)c1,14,3,0.8,-0.7,2.2%,-10
N#Cc1c(N)c(C#N)c(-c2ccc3c(c2)OCO3)c2c1CCCC2,31,-4,2.0,-4.2,8.9%,-12
Cc1cc(=O)oc2c3c(cc(OCC(=O)NCC(=O)N[C@H](C(=O)O)C(C)C)c12)OC(C)(C)CC3,-7,-7,1.9,1.2,-1.3%,3
CC(C(=O)Nc1ccc(O)cc1)c1cccc(C(=O)c2ccccc2)c1 (configuration not stated),4,0,1.7,7.2,0.9%,-2
O=C(CN1C(=O)NC2(CCCC2)C1=O)Nc1ccc(Cl)cc1F,1,0,0.7,-0.8,0.0%,-1
O=C(NCc1ccco1)c1ccc2c(c1)C(=O)N(C1CCCCC1)C2=O,-3,5,3.0,0.9,-0.1%,-5
O=C(Cc1ccccc1)N1CCc2ccccc21,-1,7,0.1,-0.8,-1.8%[38.3 µM],-7
COc1ccc2[nH]c(=O)c(CN(CCO)S(=O)(=O)c3ccc4c(c3)OCCO4)cc2c1,48,7,-0.2,-4.6,-0.6%,-10
COc1ccc(OC)c(CC(NC(C)=O)C(=O)NC2CCN(c3nc(OC)nc(OC)n3)CC2)c1 (configuration not stated),22,5,0.4,-6.0,4.2%,-3
Cc1ccc(NC(=O)CSc2nnc(N)s2)c(C)c1,7,/,0.9,/,2.2%,/
COc1ccc(-c2cc3nc(NCCCN(C)C)n(C)c(=O)c3s2)cc1OC,/,-14,-0.5,-2.9,-1.2%,-8
O=C(NCCO)c1cccc(-c2cccc3nncn23)c1,/,6,-0.4,-4.8,0.8%,-8
Cc1cn([C@H](C(=O)NCCCCCCCCCCC(=O)N2CCN(C(=O)OC(C)(C)C)CC2)[C@@H](C)O)nn1,6,3,-0.6,1.4,1.7%,0
O=C(CCNS(=O)(=O)c1ccccc1)OCC(=O)c1ccc(F)cc1,-12,4,-0.4,-2.5,0.3%,-7
COc1cccc(CNc2nc(SC)ncc2CO)c1,-11,2,-0.1,1.8,-4.8%,-2
CC(=O)Nc1ccc(OCC(O)CN2CCN(c3cccc(Cl)c3)CC2)cc1 (configuration not stated),7,-16,-0.6,?,17%[38.3 µM],14
NC(=O)C1CCN(C(=O)c2cccc(S(=O)(=O)N3CCCC3)c2)CC1,19,6,-0.1,-7.4,-0.5%,-15
CN(Cc1ccc(Cl)cc1Cl)C(=O)CCNC(=O)c1ccco1,-10,-4,-0.3,-3.0,-0.4%,-6
Cc1ccc(SCC(=O)OCC(=O)N(CCC#N)c2ccccc2)cc1C,19,-4,-0.6,-8.2,0.3%,12
CC(=O)N1CCN=C1SCc1ccc(C)cc1,-5,5,0.4,1.4,2.2%,-6
CCOC(=O)c1cnc2cc(F)c(F)cc2c1Nc1ccccc1O,4,/,2.2,/,-0.8%,/
# New compounds follow.
SMILES,TRPML1 inh,Six1-Eya2 blk,TRPML1 ag,D2 agonist,PINK1 modulator,D2 potentiator
C1=C(c2ccccc2)Nc2ncnn2C1c1ccccc1 (configuration not stated),22,3,5.7,-0.9,-0.3%,1
CCn1c2ccccc2c2cc(NC(=O)CC(C)=O)ccc21,10,0,-0.3,-4.8,0.6%,-19
CCOC(=O)c1cc(OC)c2cccc(CN3CCC(C)(C(=O)NCCOC)C3)c2c1 (configuration not stated),/,-2,4.2,-5.3,1.5%,-4
CCOC(=O)c1c(NC(=O)C2C3C=CC(C3)C2C(=O)O)sc2c1CC(C)(C)OC2 (configuration not stated),10,5,-0.8,-2.4,0.6%,-8
O=C1NC[C@H](Cc2ccccc2)N(C[C@H]2CCCN2C[C@H](Cc2ccccc2)N2C[C@H](Cc3ccccc3)N(CC3CCCCCC3)C(=O)C2=O)C1=O,10,-4,0.2,-2.6,3.9%,-10
CCCS(=O)(=O)c1nc(S(=O)(=O)c2ccc(C)cc2)c(N2CCC(C)CC2)s1,?,2,1.0,-2.6,-1.6%,-1
C#CCn1cc2c(c1-c1ccccc1)c(=O)n(C)c(=O)n2C,14,2,2.2,-1.8,1.2%,0
Cc1ccccc1CN1CCN(C(=O)c2ccc(F)cc2)CC1,-1,-3,0.3,-3.0,0.1%,-5

# From PubChem BioAssay
